Compound activity: PubChem, several laboratories
rRNA inh HTS – reduced GFP signal of wild-type E. coli, primary screen, bacterial rRNA inhibitor project, GFP/RFP fluorescence, OD600, single point. E. coli WT GFP vs humanized-ribosome RFP mutants, 24 h; hits give low values; DMSO median 0, no signal -100. GFP signal change (wild-type ribosome), % (test concentration not listed). 350,000 tested, 1.6% active. AID 720706, 2013;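 active means significant combined selectivity score with lowered wild-type GFP, culture density cut under 30%, mutant RFP and density less affected; inactive means any of these conditions unmet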; further: one replicate is shown; some compounds called inactive have numbers as strong as hits
Vif A3G – inhibitors of Vif binding to APOBEC3G peptide, primary screen, biochemical, TR-FRET, GST-Vif 1-94, biotin-A3G peptide, dose response retest (AID 1117319); 260,000 tested, 0.57% active; inhibition, %; hits with a dose series show IC50 in µM; TR-FRET GST-Vif / biotin-A3G peptide binding; higher % means a stronger effect; test concentration not given here; strong numbers were not always called active; Virion infectivity factor (Human immunodeficiency virus type 1 group M subtype B (isolate …;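 active means above the screen mean plus three standard deviations and confirmed in dose response; inconclusive means results disagree or hit not tested in dose response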;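 further: Vif residues 1-94 fused to GST binding biotinylated APOBEC3G peptide 110-148; 0% = full assay without inhibitor and 100% = GST in place of GST-Vif; retest series ran down from 100 µM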
ALR inh – inhibitors of human ALR sulfhydryl oxidase, primary screen, biochemical, H2O2 detection, HRP-luminol luminescence, single point; 290,000 tested, 3.8% active; purified ALR, DTT oxidation; inhibition, % (no concentration beside the values);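 active means mean and each replicate at 75% or more; inconclusive means only one of the two met; inactive means neither met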;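 further: stock transfer was 7.5 nL into about 7.5 µL; 0% = neutral wells and 100% = wells with inactivated enzyme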
Target sequence (P55789 whole entry, looked up): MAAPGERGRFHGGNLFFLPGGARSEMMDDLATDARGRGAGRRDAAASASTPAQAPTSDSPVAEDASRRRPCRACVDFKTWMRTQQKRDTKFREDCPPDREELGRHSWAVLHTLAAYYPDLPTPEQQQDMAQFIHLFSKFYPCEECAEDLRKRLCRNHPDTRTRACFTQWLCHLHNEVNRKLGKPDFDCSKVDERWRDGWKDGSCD
HNF4A DNA FP – change in binding of human HNF4A to DNA, primary screen, biochemical, fluorescence polarization, FITC-DNA | Hepatocyte nuclear factor 4-alpha (Homo sapiens), P41235 | 1 h | activity change, % at 10 µM | 360,000 tested, 0.3% active; in the data active means activity change above about 30%, passing the limit was not always enough;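 further: controls were the assay level and a saturating level of protein; the project sought stronger binding though the title names inhibitors; some compounds called inactive have numbers as strong as hits; positive values seem to mean higher polarization but the record does not say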
Target sequence (P41235 whole entry, looked up): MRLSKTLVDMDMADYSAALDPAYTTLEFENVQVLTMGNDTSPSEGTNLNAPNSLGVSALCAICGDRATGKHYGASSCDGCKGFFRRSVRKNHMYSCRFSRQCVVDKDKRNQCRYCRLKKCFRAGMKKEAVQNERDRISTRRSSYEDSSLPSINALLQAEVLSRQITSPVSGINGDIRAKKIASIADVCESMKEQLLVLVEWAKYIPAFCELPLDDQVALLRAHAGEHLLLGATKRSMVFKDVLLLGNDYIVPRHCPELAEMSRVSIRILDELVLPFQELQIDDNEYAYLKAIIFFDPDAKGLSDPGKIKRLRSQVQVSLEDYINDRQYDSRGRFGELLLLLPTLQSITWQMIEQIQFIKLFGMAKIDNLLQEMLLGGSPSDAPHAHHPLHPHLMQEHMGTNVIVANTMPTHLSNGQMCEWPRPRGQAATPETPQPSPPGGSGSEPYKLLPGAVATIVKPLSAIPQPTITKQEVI
Ecoli growth – E. coli growth inhibition, primary screen, OD600. 330,000 tested, 0.21% active. Escherichia coli growth, 23 h; hits give low values. OD600 absorbance (test concentration not listed);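 active means OD600 absorbance below the run mean of sample wells minus 3.6 SD, in any replicate, cut at about 0.56 in these data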;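 further: stock transfer was 300 nL into about 60 µL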
AF4-AF9 inh – inhibitors of AF4 peptide binding to AF9, primary screen, biochemical, AlphaScreen, biotin-AF4 peptide, FLAG-AF9, single point. Protein AF-9 (Homo sapiens), P42568. inhibition, % at 10 µM. 350,000 tested, 0.47% active. AID 651704, 2012;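 active means every replicate reaching a set inhibition limit, whatever the replicate mean, cut at about 25% in these data; inconclusive means mean inhibition reaches that limit but some replicates miss it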;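 further: 0% = plate neutral control median and 100% = total signal loss; the record names both 10 and 1 µM as test concentration; the first replicate is given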
FGF22 binding – binders of human FGF22 protein, primary screen, FGF22 synaptogenesis inhibitor project, biophysical, thermal shift, single point; Fibroblast growth factor 22 (Homo sapiens), Q9HCT0; recombinant FGF22 thermal shift, SYPRO orange fluorescence; percent of sucrose octasulfate shift, DMSO zero; calls only at 9.99 µM; 340,000 tested, 1.5% active;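 active means melting point raised past a set limit in the mean and every replicate; inconclusive means no clear call; three in four hits are not shown here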
Target sequence (Q9HCT0 whole entry, looked up): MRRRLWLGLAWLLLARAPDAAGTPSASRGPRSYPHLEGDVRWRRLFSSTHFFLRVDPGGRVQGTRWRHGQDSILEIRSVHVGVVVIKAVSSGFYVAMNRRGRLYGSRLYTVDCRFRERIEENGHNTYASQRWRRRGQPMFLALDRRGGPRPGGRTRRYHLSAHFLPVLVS
rRNA inh HTS OD600 – also measured in rRNA inh HTS; calls as there; OD600 change, %; measured here: OD600 growth;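 optical density of the mix in the first replicate; 0 = DMSO median and -100 = no signal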
rRNA inh HTS RFP – second read-out of rRNA inh HTS, no call of its own (marks repeat the call); RFP signal change, %; measured here: RFP humanized mutant strains;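 first replicate; 0 = DMSO median and -100 = no signal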
An asterisk follows results filed as active; i = inactive; ? = inconclusive; nt = not tested or not shown; & = joins results of further samples.

SMILES	rRNA inh HTS	rRNA inh HTS OD600	rRNA inh HTS RFP	Vif A3G	ALR inh	HNF4A DNA FP	Ecoli growth	AF4-AF9 inh	FGF22 binding
CC1(C)c2[nH]c3ccccc3c2C[C@H]2C(=O)N(N)CC(=O)N21	7	11	-0.2	3%	-3	2.3	0.7	5.2	i
COc1cccc(C(=O)NCCS(=O)(=O)N2CCN(C(=O)c3ccco3)CC2)c1	10	8	-0.5	nt	-6	1.7	0.67	-0.5	i
O=C1NC[C@H](CCCCN2CCN(CCc3ccc(O)cc3)C(=O)C2=O)N(CCc2ccc(O)cc2)C1=O	25	16	-0.8	nt	nt	0.4	nt	-7.0	i
Cc1cc(S(=O)(=O)N2CCOCC2)ccc1OCC(=O)Nc1ccc(F)c(Cl)c1	5	6	-2.3	nt	nt	2.1	0.69	1.7	i
C=CCOC(=O)C1=C(C)Nc2nnnn2C1c1cccs1 (centres undefined)	nt	nt	nt	6%	-4	-1.7	0.72	nt	nt
Cc1nn2c3ccccc3nc2n(C)c1=O	nt	nt	nt	-4%	nt	0.3	0.72	nt	nt
CCc1ccc(N2C(=O)CN(Cc3cccs3)C2=S)cc1	4	-5	-4.7	-4%	-1	4.3	0.71	-1.2	i
O=[N+]([O-])c1ccc(COc2ccc(CN3CCCC3)cc2)cc1	10	6	-1.5	6%	nt	2.6	nt	4.4	i
CC(C)N1CCN(Cc2ccc(-c3ccccc3Cl)o2)CC1CCO (centres undefined)	4	0	2.7	-6%	-13	0.0	0.7	5.3	i
Cc1ccc(NC(=O)Nc2nnc(-c3ccncc3)s2)cc1	-1	5	-3.1	-11%	-10	-0.2	0.61	0.1	i
O=C(NCc1ccc2c(c1)OCO2)c1cccc(S(=O)(=O)N2CCCCC2)c1	-9	-9	1.9	29%	-4	1.9	0.66	-33	i
CCOc1ccccc1NC(=O)CCn1ccnc1	7	7	-2.3	nt	1	-2.9	0.65	-0.2	i
CC(C)CC#Cc1ccc([C@@H]2[C@H](CO)N3C(=O)CN(C(=O)Nc4cc(F)ccc4F)C[C@@H]23)cc1	-11	-35	2.9	nt	nt	nt	nt	0.1	i
O=C(Nc1ccc(Br)cn1)c1ccc(COc2c(F)c(F)cc(F)c2F)o1	0	13	-2.6	-2%	-1	-1.3	0.7	-0.6	i
C[C@H](CO)N1C[C@H](C)[C@@H](CN(C)C(=O)Nc2ccccc2)Oc2ccc(NS(=O)(=O)c3ccc(Cl)cc3)cc2C1=O	-1	6	1.4	nt	nt	nt	nt	-0.2	i
CCN(CC)S(=O)(=O)c1cc(C(=O)OCC(=O)Nc2cccc(S(=O)(=O)N(C)C)c2)ccc1F	-8	-5	-1.5	-7%	6	2.7	0.67	3.9	i
N/C(CN1CCCC1=O)=N\O	nt	nt	nt	2%	-2	-0.6	nt	nt	nt
Cc1ccc(N2CC(C(=O)OCC(=O)Nc3ccccc3C)CC2=O)cc1 (centres undefined)	5	13	4.2	-4%	nt	-2.6	0.68	-1.4	i
Cc1cccc(-c2cnc(C(O)c3ccc(Cl)cc3C)[nH]2)c1 (centres undefined)	-34	-48	-13	nt	nt	2.3	nt	4.4	i
CC(C)c1ccc(S(=O)(=O)N2CCN(C(=O)c3ccncc3)CC2)cc1	4	3	3.0	-3%	5	-2.1	0.69	-0.4	i
C[C@@H]1CCCCO[C@H](CN(C)Cc2ccc(C(F)(F)F)cc2)[C@@H](C)CN([C@H](C)CO)C(=O)c2cc(NC(=O)c3ccccc3)ccc2O1	-1	-6	-0.1	nt	nt	nt	nt	-1.1	i
O=C(c1ccco1)N1CCN(C(=O)C2CC(=O)N(c3ccccc3)C2)CC1 (centres undefined)	-1	1	1.1	nt	-2	-0.2	0.66	0.6	i
COc1ccc(C2c3[nH]c4ccccc4c3CCN2Cc2cccn2-c2ncccn2)cc1C (centres undefined)	-16	-20	0.9	nt	-7	2.5	0.65	31*	i
C[C@@H]1CN([C@H](C)CO)C(=O)Cc2cc(NS(=O)(=O)c3ccc(Cl)cc3)ccc2O[C@@H]1CN(C)S(=O)(=O)c1ccc(Cl)cc1	-2	0	-1.1	nt	nt	nt	nt	2.6	i
O=C(O)Cc1ccc(NC(=O)c2cccs2)cc1	10	7	-0.9	?	0	3.5	0.67	nt	nt
Next section.
SMILES	rRNA inh HTS	rRNA inh HTS OD600	rRNA inh HTS RFP	Vif A3G	ALR inh	HNF4A DNA FP	Ecoli growth	AF4-AF9 inh	FGF22 binding
O=S(=O)(c1ccc2ccccc2c1)N(CC(O)CN1CCOCC1)c1ccccc1 (centres undefined)	nt	nt	nt	-4%&2%	nt	-2.6	0.74	nt	nt
O=C(Nc1ccnn1C1CCN(Cc2cccc(O)c2)CC1)C1CCCC1	7	7	0.0	-2%	23	2.2	0.72	-1.7	i
CCC(C)c1ccc(NC(=S)Nc2ccc(OC)cc2)cc1 (centres undefined)	nt	nt	nt	20%	nt	-0.9	0.66	nt	nt
COCCn1c(SCC(=O)Nc2cc(C)on2)nnc1-c1c[nH]c2ccccc12	-13	-5	1.1	2%	nt	4.7	0.79	-4.1	i
O=C(C[C@@H]1CC[C@@H]2[C@H](COC[C@@H](O)CN2Cc2ccccc2F)O1)NC1CCC1	3	5	0.3	nt	nt	nt	nt	-0.1	i
CN(C)S(=O)(=O)c1ccc(Cl)c(C(=O)OCC(=O)NNC(=O)c2cccs2)c1	0	14	-1.5	nt	nt	1.9	0.71	1.4	i
COc1cccc(NC(=O)N(C)C[C@@H]2Oc3ncc(/C=C/c4ccccc4)cc3C(=O)N([C@H](C)CO)C[C@H]2C)c1	-12	-10	8.9	nt	nt	nt	nt	4.0	i
CC(C)NC(=O)Nc1ccc2c(c1)C(=O)N([C@@H](C)CO)C[C@@H](C)[C@H](CN(C)Cc1ccncc1)OCCCC[C@H](C)O2	-5	-2	2.2	nt	nt	nt	nt	0.4	i
CCn1c(=O)cc(SCC(=O)NCc2ccco2)c2ccccc21	nt	nt	nt	15%	4	3.0	0.65	nt	nt
O=C(COc1ccc(Br)cc1)Nc1ccc2oc(=O)ccc2c1	6	6	-0.8	nt	5	6.9	0.69	-2.1	i
CCOC(=O)c1c(C)oc2ccc(OCC(=O)C(C)(C)C)cc12	nt	nt	nt	-2%	-9	-0.2	0.68	nt	nt
COc1ccc2c(c1OC)C(=O)N1C(C(=O)O)Cc3c([nH]c4ccccc34)C21 (centres undefined)	nt	nt	nt	15%	-5	-1.5	0.73	nt	nt
O=C(COC(=O)Cc1ccc(Cl)cc1Cl)NC1CC1	1	10	-0.8	-9%	-3	-1.4	0.71	-2.0	i
CCc1ccc(N2C(=O)CC(NNc3nc4ccccc4s3)C2=O)cc1 (centres undefined)	nt	nt	nt	9%	-32	2.8	nt	nt	nt
O=C(Cn1ccnc1)c1ccc(O)c(O)c1	5	16	-1.8	nt	90*	-7.6	0.71	-1.4	i
CC(NC(=O)CS(=O)(=O)c1ccccc1)c1ccccc1 (centres undefined)	6	11	-2.3	-10%	-2	-1.8	0.71	-4.6	i
COc1cc(CCC(=O)NNC(=O)c2cccc(Cl)c2)cc(OC)c1OC	7	8	0.5	nt	1	-2.5	0.67	2.6	i
O=C(COC(=O)c1ccccc1)c1ccc(S(=O)(=O)N2CCCCC2)cc1	16	16	3.4	-2%	nt	-4.9	0.7	-2.4	i
Cc1cc(Cl)ccc1Oc1ncnc2oc(-c3ccccc3)cc12	nt	nt	nt	-3%	2	3.9	0.75	nt	nt
CSc1ccc(C2NN=C(c3ccccc3)S2)cc1 (centres undefined)	20	-5	-2.6	nt	-15	4.0	0.71	-1.7	i
Cc1cc(C)nc(N2CCC(C(=O)NCCc3ccc(Cl)cc3)CC2)n1	7	5	-2.3	nt	-9	3.0	0.71	-0.4	i
COc1ccccc1C1CC(c2ccc(F)cc2)Nc2ncnn21 (centres undefined)	nt	nt	nt	3%	-2	-0.7	0.7	nt	nt
Clc1ccccc1-c1ncc(-c2ccccc2)o1	7	8	-1.1	5%	nt	3.7	0.7	-3.6	i
O=C(O)CNC(=S)N(Cc1ccccc1)Cc1ccccc1F	-21	-17	-4.1	10%	9	-1.9	0.7	-0.4	i
Cn1c(N)c(S(=O)(=O)N2CCN(c3ccccc3)CC2)c(=O)n(C)c1=O	nt	nt	nt	2%	30	-3.7	0.72	-1.4	i
More results:
SMILES	rRNA inh HTS	rRNA inh HTS OD600	rRNA inh HTS RFP	Vif A3G	ALR inh	HNF4A DNA FP	Ecoli growth	AF4-AF9 inh	FGF22 binding
C[C@H]1CCCCO[C@H](CN(C)C(=O)CCCN(C)C)[C@@H](C)CN([C@@H](C)CO)C(=O)c2cc(NC(=O)c3ccccc3)ccc2O1	-1	7	1.2	nt	nt	nt	nt	-3.1	i
C[C@H]1CN([C@@H](C)CO)C(=O)c2cc(/C=C/c3ccccc3)cnc2O[C@@H]1CN(C)Cc1ccc2c(c1)OCO2	8	0	5.9	nt	nt	nt	nt	7.8	i
O=C(Nc1nccs1)c1cc(-c2ccccc2)nn1-c1ccccc1	nt	nt	nt	nt	-5	0.8	0.73	nt	nt
COc1ccc(CN(C)C[C@H]2Oc3ccc(NC(=O)Nc4ccc(C(F)(F)F)cc4)cc3C(=O)N([C@H](C)CO)C[C@@H]2C)cc1	-22	-38	20	nt	nt	nt	nt	2.4	i
CCC(C)c1ccc(S(=O)(=O)N2CCN(C(=O)COc3ccc4c(C)cc(=O)oc4c3)CC2)cc1 (centres undefined)	nt	nt	nt	-5%	-13	-1.1	nt	nt	nt
COc1ccc(-c2noc(=O)n2Cc2ccccc2Cl)cc1	-15*	4.9*	1.0*	-4%	-8	3.4	0.65	-13	i
CCOC(=O)C1C(=O)NC(c2ccccc2)=NC1c1cccc(Br)c1 (centres undefined)	0	0	-2.6	-5%	5	2.5	0.68	0.1	i
CCOC(=O)c1sc(NS(=O)(=O)c2cc(C)ccc2C)nc1C	nt	nt	nt	4%	25	-0.8	0.66	nt	nt
C[C@H]1CN([C@@H](C)CO)C(=O)CCCn2cc(nn2)CO[C@H]1CN(C)S(=O)(=O)c1ccc(Oc2ccccc2)cc1	-2	-16	6.5	nt	nt	nt	nt	2.0	i
COc1ccc([C@@H]2CC(=O)c3c(O)cc(O)cc3O2)cc1O	nt	nt	nt	nt	3	0.1	nt	-8.2	i
Cc1cc(C(=O)COC(=O)COc2ccc(C#N)cc2)c(C)n1C1CC1	5	12	-0.1	2%	4	2.5	0.65	-5.7	i
COc1ccc(NC(=O)Nc2ccc3c(c2)C(=O)N([C@@H](C)CO)C[C@@H](C)[C@@H](CN(C)S(=O)(=O)c2cccs2)OCCCC[C@H](C)O3)cc1	-7	-6	-3.6	nt	nt	nt	nt	-2.7	i
COc1cc(C(=O)Nc2ccn(C)n2)ccc1OC(F)F	18	18	1.7	nt	15	-0.5	0.69	-2.4	i
O=S(=O)(c1ccccc1F)N1CCN(CC(O)c2ccccc2)CC1 (centres undefined)	3	-2	8.4	21%	-6	3.8	0.63	-1.0	i
O=C(NNC(=O)c1ccccc1F)c1cccs1	3	11	0.1	5%	-3	1.7	0.65	-3.9	i

Results in Vif A3G and ALR inh, for some of the entries so far:
| Compound | Vif A3G | ALR inh |
| --- | --- | --- |
| COc1cc(C(=O)Nc2ccn(C)n2)ccc1OC(F)F | nt | 15 |
| O=S(=O)(c1ccccc1F)N1CCN(CC(O)c2ccccc2)CC1 (centres undefined) | 21% | -6 |

This is a subset; count on the stated rates, not on these rows.
